Bioassay records: PubChem BioAssay, Broad Institute
AF4-AF9 inh: MLL-AF4/AF9 protein interaction inhibition; P42568; AlphaScreen, biotin-AF4 peptide binding to FLAG-AF9; inhibition, % at 10 µM; actives 0.47% (n = 350,000); AID 651704;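 active = every replicate reaching a set inhibition limit, whatever the replicate mean, cut at about 25% in these data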;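 also: 0% = plate neutral control median and 100% = total signal loss; the record names both 10 and 1 µM as test concentration; the first replicate is given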
Target sequence (P42568 whole entry, looked up): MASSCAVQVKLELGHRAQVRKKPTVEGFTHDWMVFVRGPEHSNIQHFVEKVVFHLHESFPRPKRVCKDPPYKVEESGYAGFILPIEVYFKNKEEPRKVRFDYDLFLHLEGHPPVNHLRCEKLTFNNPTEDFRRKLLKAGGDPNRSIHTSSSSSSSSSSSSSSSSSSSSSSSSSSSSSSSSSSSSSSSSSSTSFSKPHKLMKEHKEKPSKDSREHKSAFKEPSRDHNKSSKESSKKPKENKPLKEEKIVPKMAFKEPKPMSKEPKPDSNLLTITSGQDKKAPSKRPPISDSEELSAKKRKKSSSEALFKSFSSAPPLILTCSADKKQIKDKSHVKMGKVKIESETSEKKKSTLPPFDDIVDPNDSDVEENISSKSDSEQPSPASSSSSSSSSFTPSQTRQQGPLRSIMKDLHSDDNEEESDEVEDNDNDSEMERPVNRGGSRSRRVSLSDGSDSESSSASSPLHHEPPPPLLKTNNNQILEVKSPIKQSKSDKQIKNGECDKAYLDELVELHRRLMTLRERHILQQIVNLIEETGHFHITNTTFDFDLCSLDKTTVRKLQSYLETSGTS
rRNA inh HTS: inhibitors of bacterial rRNA selective over humanized ribosomes | E. coli WT GFP vs humanized-ribosome RFP mutants, fluorescence, 24 h; stronger effect = lower value; DMSO median 0, no signal -100 | GFP signal change (wild-type ribosome), % (test concentration not listed) | actives 1.6% (n = 350,000) | AID 720706;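 active = significant combined selectivity score with lowered wild-type GFP, culture density cut under 30%, mutant RFP and density less affected; inactive = any of these conditions unmet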; also: one replicate is shown; some compounds called inactive have numbers as strong as hits
FGF22 binding: shifts melting point of recombinant human FGF22 | recombinant FGF22 thermal shift, SYPRO orange fluorescence; percent of sucrose octasulfate shift, DMSO zero | calls only at 9.99 µM | actives 1.5% (n = 340,000) | AID 651658;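 active = melting point raised past a set limit in the mean and every replicate; three in four hits are not shown here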
Target sequence (Q9HCT0 whole entry, looked up): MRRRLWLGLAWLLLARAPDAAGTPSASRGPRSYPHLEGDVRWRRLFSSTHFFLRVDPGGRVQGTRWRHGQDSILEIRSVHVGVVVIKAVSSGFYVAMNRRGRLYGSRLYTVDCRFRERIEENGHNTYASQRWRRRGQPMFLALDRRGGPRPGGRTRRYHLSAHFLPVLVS
rRNA inh HTS OD600: also measured in rRNA inh HTS; calls as there; OD600 change, %; measured here: OD600 growth;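 optical density of the mix in the first replicate; 0 = DMSO median and -100 = no signal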
rRNA inh HTS RFP: further read-out of rRNA inh HTS, marked with its call; RFP signal change, %; measured here: RFP humanized mutant strains;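 first replicate; 0 = DMSO median and -100 = no signal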
The depositor's hits bear a star; i = inactive; & = joins results of further samples. An excerpt; the hit share may differ from the screen's.

SMILES	AF4-AF9 inh	rRNA inh HTS	rRNA inh HTS OD600	rRNA inh HTS RFP	FGF22 binding
COC(=O)C[C@@H]1CC[C@@H]2[C@H](COc3ccc(NC(=O)c4ccc(F)cc4)cc3C(=O)N2C)O1	-0.6	-0.5	2.1	-0.4	i
C#CCN(C[C@H]1[C@H](OC(=O)NCC2CCCCC2)[C@H](OC(=O)NCC2CCCCC2)C[C@@H](C(=O)OC)[C@H]1C(=O)OC)S(=O)(=O)c1ccc(C)cc1	-0.3	0.2	-0.8	-5.7	i
CC(c1nc2ccccc2[nH]1)N(C(=O)Cc1csc2ccccc12)c1cccnc1 (centres undefined)	-1.3	-6.5	0.7	0.5	i
COc1ccc2c3c([nH]c2c1)[C@H](CO)N(Cc1cccc(F)c1)CC31CCN(Cc2ccccn2)CC1	6.2	0.4	1.1	7.2	i
CCC(=O)N1C[C@@H](C)[C@H](OC)CN(C)C(=O)c2ccc(NC(=O)COC)cc2OC[C@@H]1C	-1.7	1.3	4.4	0.3	i
C[C@@H]1CN([C@@H](C)CO)C(=O)Cc2cc(NC(=O)NC3CCCCC3)ccc2O[C@H]1CN(C)S(=O)(=O)c1cn(C)cn1	-9.1	3.7	2.3	1.9	i
COc1cc(OC)nc(C(NC(=O)C2CCN(Cc3ccc(N(C)C)cc3)CC2)c2ccc(F)cc2)n1 (centres undefined)	2.8	21.8	17.4	5.1	i
COC(=O)[C@]12CCCCC=C1N(Cc1ccc(Cl)cc1Cl)C(=O)[C@H](CC(=O)NCC13CC4CC(CC(C4)C1)C3)C2	-0.7	17.8	14.5	2.5	i
COc1cccc(NC(=O)N[C@H]2CC[C@@H](CC(=O)N3CCN(C)CC3)O[C@H]2CO)c1	-0.2	-0.9	5.7	-2.4	i
CC(C)NC(=O)Nc1ccc2c(c1)C(=O)N([C@@H](C)CO)C[C@@H](C)[C@@H](CN(C)C(=O)Cc1ccccc1)OCCCC[C@@H](C)O2	2.0	-3.7	-1.1	-0.8	i
C[C@H](CO)N1C[C@H](C)[C@H](CN(C)Cc2ccccc2C(F)(F)F)OCc2ccccc2-c2ccccc2C1=O	1.6	1.0	0.8	0.4	i
Cc1noc(C)c1S(=O)(=O)N(C)C[C@H]1Oc2ccc(NS(=O)(=O)c3ccccc3)cc2CC(=O)N([C@@H](C)CO)C[C@H]1C	-1.8	4.2	10.9	-2.1	i
Cc1noc(C)c1NC(=O)N(C)C[C@@H]1Oc2ccc(NS(=O)(=O)c3ccccc3)cc2CC(=O)N([C@@H](C)CO)C[C@H]1C	-2.0	1.1	8.0	-2.1	i
COc1ccc(CN(C)C[C@H]2Oc3ccc(NS(=O)(=O)c4ccc(F)cc4)cc3C(=O)N([C@@H](C)CO)C[C@@H]2C)cc1	-0.9	-0.4	2.7	-0.5	i
CC(C)C[C@H]1CNC(=S)N1CC1CCCN1C[C@H](Cc1ccc(O)cc1)N1C[C@H](Cc2ccccc2)N(CC2CCCCC2)C1=S (some centres undefined)	1.9	-0.7	11.7	1.1	i
CC(=O)N(C)C[C@@H]1Oc2cc(C#CCN(C)C)ccc2S(=O)(=O)N([C@@H](C)CO)C[C@@H]1C	-2.3	-0.9	4.5	-0.9	i
C[C@H]1CN([C@@H](C)CO)C(=O)c2cc(-c3ccc(F)cc3)cnc2O[C@H]1CN(C)C(=O)C1CCC1	-5.2	-0.4	-6.0	-0.6	i
Cc1noc(C)c1NC(=O)N(C)C[C@H]1Oc2c(NC(=O)c3ccncc3)cccc2C(=O)N([C@@H](C)CO)C[C@@H]1C	-1.2	2.3	1.2	-1.8	i
C[C@@H]1CCCCO[C@@H](CN(C)C(=O)Nc2ccc(F)cc2)[C@H](C)CN([C@H](C)CO)C(=O)c2cc(NS(C)(=O)=O)ccc2O1	1.7	0.0	-2.9	1.4	i
CC[C@@H]1Cc2[nH][nH]c(=O)c2[C@H](c2ccc(Cl)cc2)O1	-3.5	-0.4	2.8	1.4	i
O=C(N[C@@H]1CC[C@H](CCn2cc(C3(O)CCCC3)nn2)O[C@H]1CO)C1CCC1	-2.7	-2.5	2.7	3.7	i
C[C@@H]1CN([C@@H](C)CO)C(=O)c2cccc(NC(=O)c3cnccn3)c2O[C@H]1CN(C)Cc1ccc(C(=O)Nc2ccccc2N)cc1	1.8	-3.1	-3.3	0.5	i
COc1ccc(NC(=O)Nc2ccc3c(c2)C(=O)N([C@H](C)CO)C[C@H](C)[C@@H](CN(C)S(=O)(=O)c2ccc(Cl)cc2)OCCCC[C@@H](C)O3)cc1	-0.8	4.8	3.2	0.8	i
COc1cccc(S(=O)(=O)Nc2ccc3c(c2)[C@H]2C[C@@H](CC(=O)NCc4ccccc4F)O[C@H](CO)[C@H]2O3)c1	8.4	0.8	-15.6	-1.4	i
CNC[C@H]1Oc2ccc(NC(=O)NC3CCCCC3)cc2C(=O)N([C@@H](C)CO)C[C@H]1C	-0.5	2.4	3.9	-1.2	i

Continuation.
SMILES	AF4-AF9 inh	rRNA inh HTS	rRNA inh HTS OD600	rRNA inh HTS RFP	FGF22 binding
CNC[C@@H]1OCCCC[C@H](C)Oc2ccc(NS(=O)(=O)c3ccc(C)cc3)cc2C(=O)N([C@H](C)CO)C[C@H]1C	-3.9	5.7	-1.5	-1.3	i
C[C@@H]1CN([C@H](C)CO)C(=O)c2cc(N(C)C)ccc2O[C@@H]1CN(C)S(=O)(=O)c1cccs1	2.0	0.3	-2.5	-1.1	i
CCCNC(=O)N1C[C@@H](C)[C@H](OC)CN(C)C(=O)c2ccc(NS(=O)(=O)CC(F)(F)F)cc2OC[C@@H]1C	-5.3	1.7	-4.6	0.9	i
CNC[C@@H]1OCCCC[C@H](C)Oc2ccc(NS(=O)(=O)c3ccc(F)cc3)cc2C(=O)N([C@H](C)CO)C[C@@H]1C	1.3	0.7	-5.9	0.6	i
O=C(C[C@@H]1CC[C@@H]2[C@H](COC[C@H](O)CN2Cc2ccccc2F)O1)N1CCc2ccccc2C1	1.2	-19.0	-48.2	3.4	i
O=S(=O)(Cc1ccccc1)C(c1ccccc1)S(=O)(=O)Cc1ccccc1	-2.3	6.0	11.4	-1.3	i
C[C@@H]1CN([C@@H](C)CO)C(=O)c2cc(NC(=O)Nc3ccc4c(c3)OCO4)ccc2O[C@@H](C)CCCCO[C@H]1CN(C)Cc1ccccc1	-9.6	2.2	-2.1	0.2	i
COc1ccc(CNC(=O)C[C@H]2C=C[C@@H](NC(=O)c3cccc(F)c3)[C@H](CO)O2)cc1	-2.0	-0.3	-2.6	-3.6	i
COc1cccc(C#Cc2ccc3c(c2)O[C@@H](CN(C)C(C)=O)[C@@H](C)CN([C@H](C)CO)S3(=O)=O)c1	4.9	0.2	4.6	2.3	i
O=C(C[C@@H]1CC[C@@H]2[C@H](COC[C@@H](O)CN2S(=O)(=O)c2ccc(F)cc2)O1)NCC1CC1	4.7	2.6	4.2	-6.0	i
Cc1ccc(S(=O)(=O)N(C)C[C@H]2Oc3ccc(NC(=O)Nc4ccc(F)cc4)cc3C(=O)N([C@H](C)CO)C[C@H]2C)cc1	0.5	-0.4	-12.4	-3.9	i
COC(=O)[C@@]1(Cc2ccc(F)cc2)[C@H]2c3cc(C(=O)N4CCCC4)n(Cc4ccc(Cl)c(C(F)(F)F)c4)c3C[C@H]2CN1C(=O)c1ccccc1	1.6	11.5	9.9	2.8	i
C[C@H](CO)N1C[C@H](C)[C@@H](CN(C)C(=O)Nc2cccc3ccccc23)Oc2ccc(NS(C)(=O)=O)cc2CC1=O	-2.4	7.4	8.1	6.8	i
N#C[C@@H]1[C@@H](c2ccc(C#Cc3ccccc3F)cc2)[C@@H](CO)N1C(=O)c1cccnc1	-0.5	7.7	8.8	-1.6	i
CCCNC(=O)Nc1ccc2c(c1)OC[C@@H](C)N(C(=O)CC)C[C@@H](C)[C@@H](OC)CN(C)C2=O	-4.4	0.1	-3.2	1.7	i
O=C(Nc1nc([C@@H]2O[C@H](CO)[C@@H](O)[C@H](O)[C@H]2O)cs1)NC(c1ccccc1)c1ccccc1	-2.7	5.8	15.1	2.9	i
CCc1nc2ccc(C(=O)N(CC)CCN(C)C)cn2c1N(C)Cc1ccc(OC)cc1	2.1	-1.6	16.8	-1.8	i
C[C@@H]1CCCCO[C@H](CN(C)C(=O)Nc2ccccc2)[C@H](C)CN([C@@H](C)CO)C(=O)c2cc(NS(=O)(=O)c3ccc(Cl)cc3)ccc2O1	-1.1	0.1	4.5	-0.8	i
Cc1ccccc1OCCCN1CCC(C(O)(c2ccccc2)c2ccccc2)CC1	2.1	-55.4	-77.0	-15.3	i
CO[C@H](CN(C)C(=O)c1ccc2c(c1)OCO2)[C@H](C)CN([C@@H](C)CO)S(=O)(=O)c1ccc(C)cc1	-0.6	-0.4	3.8	0.5	i
C[C@H]1CN([C@@H](C)CO)C(=O)c2cccc(NC(=O)Nc3cccc4ccccc34)c2O[C@@H]1CN(C)S(=O)(=O)c1cccs1	1.1	2.3	-1.7	-1.4	i
Fc1ccccc1N1CCN(C(c2ccnc3ccccc23)c2nnnn2-c2ccc3c(c2)OCCO3)CC1 (centres undefined)	3.3	4.4	-2.9	5.0	i
O=C(C[C@H]1C[C@@H]2c3cc(NC(=O)C4CCC4)ccc3O[C@@H]2[C@H](CO)O1)NCC1CC1	-1.5	2.5	4.4	-2.0	i
C[C@@H]1CN([C@@H](C)CO)C(=O)c2cc(NC(=O)NC3CCCCC3)ccc2O[C@@H]1CN(C)Cc1ccc(Cl)c(Cl)c1	0.5	0.0	-8.6	1.6	i
O=S(=O)(N[C@H]1CC[C@@H](CCn2cc(-c3cccnc3)nn2)O[C@@H]1CO)c1ccc(Cl)cc1	-0.1	-0.7	0.0	-1.0	i

Continued.
SMILES	AF4-AF9 inh	rRNA inh HTS	rRNA inh HTS OD600	rRNA inh HTS RFP	FGF22 binding
C[C@@H]1CN([C@H](C)CO)C(=O)c2cccc(NC(=O)Nc3ccc4c(c3)OCO4)c2O[C@@H]1CN(C)S(C)(=O)=O	-1.8	0.6	1.8	1.6	i
Cc1ccc(S(=O)(=O)N(C)C[C@H]2Oc3c(NS(=O)(=O)c4cccs4)cccc3C(=O)N([C@H](C)CO)C[C@@H]2C)cc1	0.9	-3.8	-4.3	0.3	i
COc1ccc(S(=O)(=O)N(C)C[C@H]2OCCCC[C@H](C)Oc3ccc(NC(=O)Nc4cccc5ccccc45)cc3C(=O)N([C@@H](C)CO)C[C@@H]2C)cc1	-9.2	1.7	1.4	-0.9	i
C[C@H](CO)N1C[C@H](C)[C@@H](CN(C)C(=O)Nc2cccc(F)c2)Oc2ncc(C3=CCCC3)cc2C1=O	1.0	-5.4	-15.0	-0.3	i
COCC#Cc1cnc2c(c1)C(=O)N([C@H](C)CO)C[C@@H](C)[C@@H](CN(C)C(=O)c1cccc(F)c1)O2	-4.6	0.2	8.2	-0.4	i
C[C@@H]1CN([C@@H](C)CO)C(=O)CCCn2nncc2CO[C@H]1CN(C)S(=O)(=O)c1ccc(Cl)cc1	-1.2&-0.1&0.5	2.3&-4.0	9.1&9.7	0.2&-0.2	i
CCc1nn(CCCC(=O)NC2CCCCC2C)c(=O)c2cc3occc3n12 (centres undefined)	-0.4	-7.2	-10.3	-1.7	i
O=C(C[C@H]1CC[C@H](NS(=O)(=O)c2ccc(F)cc2)[C@H](CO)O1)NCCN1CCCCC1	-0.4	3.7	-0.7	-0.8	i
C[C@@H]1CN([C@@H](C)CO)C(=O)c2cccc(N(C)C)c2O[C@H]1CN(C)Cc1ccc(Oc2ccccc2)cc1	6.8	-2.2	-1.6	2.2	i
C/C=C/c1cnc2c(c1)C(=O)N([C@@H](C)CO)C[C@@H](C)[C@@H](CN(C)S(=O)(=O)c1cccs1)O2	-4.7	5.5	3.4	-4.5	i
O=C(NC(c1ccc(Cl)cc1)c1ccsc1)C1CCN(CCOc2ccc(Cl)cc2)CC1 (centres undefined)	-1.5	-50.0	-77.6	-17.7	i
CN1C(=O)c2cc(NC(=O)c3ccccc3F)ccc2OC[C@H]2O[C@H](CC(=O)NCc3ccc4c(c3)OCO4)CC[C@@H]21	-0.7	-1.1	-6.1	-4.4	i
CCCNC(=O)N(C)C[C@@H]1Oc2ncc(Br)cc2C(=O)N([C@@H](C)CO)C[C@@H]1C	-1.1	-0.3	4.4	-2.9	i
C[C@@H]1CN([C@@H](C)CO)C(=O)c2cc(C#CC3(O)CCCC3)cnc2O[C@@H]1CN(C)C(=O)C1CCCCC1	-3.5	1.4	9.5	-1.4	i

Entries of single compounds as entered above. Order of screens: AF4-AF9 inh, rRNA inh HTS, rRNA inh HTS OD600, rRNA inh HTS RFP, FGF22 binding
Profile of C[C@@H]1CN([C@H](C)CO)C(=O)c2cccc(NC(=O)Nc3ccc4c(c3)OCO4)c2O[C@@H]1CN(C)S(C)(=O)=O → -1.8, 0.6, 1.8, 1.6, i
Profile of CCCNC(=O)N(C)C[C@@H]1Oc2ncc(Br)cc2C(=O)N([C@@H](C)CO)C[C@@H]1C → -1.1, -0.3, 4.4, -2.9, i
Profile of CCc1nn(CCCC(=O)NC2CCCCC2C)c(=O)c2cc3occc3n12 (centres undefined) → -0.4, -7.2, -10.3, -1.7, i
Profile of C[C@@H]1CN([C@@H](C)CO)C(=O)c2cccc(N(C)C)c2O[C@H]1CN(C)Cc1ccc(Oc2ccccc2)cc1 → 6.8, -2.2, -1.6, 2.2, i
Profile of C/C=C/c1cnc2c(c1)C(=O)N([C@@H](C)CO)C[C@@H](C)[C@@H](CN(C)S(=O)(=O)c1cccs1)O2 → -4.7, 5.5, 3.4, -4.5, i
